Tgondii IFNg: T. gondii growth inhibition with IFN-gamma, primary screen, cell-based; Toxoplasma gondii growth in IFN-gamma-treated host cells; active compounds read low; reference of the scale not given here; 3.8% of 69,000 active; activity change, negative = inhibition, %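 (about 20 µM by stock and volumes)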;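 active means below -70%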;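 further: host cells are HeLa cells infected with Toxoplasma gondii; parasite growth read as luciferase light; one replicate is shown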
* hit, by the source's call. Only part of the results is shown; count on the stated rates, not on these rows.

SMILES	Tgondii IFNg
c1cncc(OCC2CN(Cc3ccco3)Cc3nccn3C2)c1 (stereo not given)	-5
Cc1cc(C(=O)N2CCC(N3CCCC3)CC2(C)C(=O)O)c(C)o1 (stereo not given)	-30
Cc1noc(C)c1NC(=O)N(C)C[C@@H]1OCc2cnnn2CCCC(=O)N([C@@H](C)CO)C[C@@H]1C	58
O=C(NCc1cccnc1)C1CCN(S(=O)(=O)c2cc(Cl)ccc2Cl)CC1	-60
COCc1cn(CC[C@@H]2CC[C@@H](NC(=O)Nc3c(C)noc3C)[C@@H](CO)O2)nn1	7
O=C(c1ccccc1Cl)N(c1ccc(Cl)nn1)C1CCCCC1	13
O=C(c1ccc(-n2c(=S)[nH]c3ccccc3c2=O)cc1)N1CCC(O)(c2cccc(C(F)(F)F)c2)CC1	-7
FC1(F)CCN(CC2CC2)CC12CCN(c1cnccn1)C2 (stereo not given)	-10
COc1ccc(C(=O)N2CCC3(CC2)Nc2ccc(C)c(C)c2-n2cccc23)c(OC)c1	45
O=C(Nc1cccc(Cl)c1)c1c(O)c2ccccc2n(-c2ccccc2)c1=O	93
CCCC#Cc1cnc2c(c1)C(=O)N([C@H](C)CO)C[C@H](C)[C@H](CN(C)C(=O)Nc1cc(F)ccc1F)O2	88
Cc1cc(Nc2ccc(NC(=O)c3ccc(Nc4ccnc5ccccc45)cc3)cc2)nc(N)n1	-78*
Cc1oc(C2CCN(S(=O)(=O)c3ccc(F)c(Cl)c3)CC2)nc1C(=O)N(C)C	38
Cc1ccc(C2CC(=O)c3c(S(C)=O)sc(C#N)c3C2)cc1 (stereo not given)	-61
CC=Cc1ccc2n(c1=O)C[C@@H]1[C@@H](CO)[C@H](C(=O)NCCCN(C)C)N(Cc3cocn3)[C@H]21 (mixture of isomers)	4
CN(Cc1csc(-c2ccccc2)n1)C(=O)CC1COCCN1 (stereo not given)	-43
CC(Cn1cnc2c3cc(F)ccc3n(CC(=O)NC3CCCC3)c2c1=O)c1ccccc1 (stereo not given)	-102*
CCn1c(C)ccc(C(=O)N(C)CCSc2ccc(C)cc2)c1=O	2
O=C(C[C@@H]1CC[C@@H]2[C@H](COC[C@H](O)CN2CCC(F)(F)F)O1)NCC1CC1	-38
CC(NC(=O)C(C)(C)NC(=O)c1cccs1)c1ncn[nH]1 (stereo not given)	79
Cc1ccc(NC2(C(=O)N3CCC4(CC3)CNC(=O)C4)CCCC2)cc1	24
Cc1cccc(OCC(=O)NCCc2sc(-c3cccc(F)c3)nc2C)c1	21
Cc1cc(C)n(Cc2ccc(C(=O)NCCS(=O)(=O)N(C)C)cc2)n1	-1
Cc1ccc(C2c3[nH]c4ccccc4c3CCN2C(=O)CCC2CCCC2)cc1 (stereo not given)	-67
O=C(CSc1nc2ccccc2[nH]1)N1CCc2ccccc21	-23
O=C(Nc1cc(-c2ccccn2)no1)c1cccc2[nH]ccc12	273
CC(=O)N1CCC(N2CCC(c3nc(C)cc(Oc4ccccc4C)n3)C2)CC1 (stereo not given)	0
O=C1c2ccccc2C(=O)C1C1=Nc2ccccc2NC(c2ccccc2)C1 (stereo not given)	38
COc1ccc(-c2noc(-c3nnn(Cc4nc(-c5ccccc5OC)oc4C)c3C)n2)cc1OC	-4
Cc1ccc(C(CNC(=O)c2ccc(-n3nc(C)cc3C)cc2)N2CCOCC2)cc1 (stereo not given)	-8

In the list so far, these contain a thiophene ring, fused or not:
SMILES	Tgondii IFNg
Cc1ccc(C2CC(=O)c3c(S(C)=O)sc(C#N)c3C2)cc1 (stereo not given)	-61
CC(NC(=O)C(C)(C)NC(=O)c1cccs1)c1ncn[nH]1 (stereo not given)	79

Next results:
SMILES	Tgondii IFNg
CC(=O)N1CCO[C@H]2CCN(C(=O)C3CC=CC3)C[C@H]21	1
CC1(C)CCC(C)(C)NC(SCc2cccc(C(F)(F)F)c2)=N1	-52
COc1cccc2c1OCC1COc3c(c(=O)n(C)c(=O)n3C)C21 (stereo not given)	-19
NC(c1ccc(Cl)cc1)c1cccnc1 (stereo not given)	23
CO[C@H]1CN(C(=O)CCCCc2ccccc2)CC[C@H]1N	-3
COCC(C)NCc1cccc(Oc2ccccc2)c1 (stereo not given)	0
CC(C)NC(=O)N1CC(=O)N2[C@H](CO)[C@@H](c3ccc(/C=C/c4ccccc4)cc3)[C@H]2C1	-34
CC(C)Cn1c(=O)n(C)c(=O)c2[nH]cnc21	10
CSCc1noc(CNc2nc(C(C)(C)C)nc3c2cnn3C)n1	-1
CCOC(=O)C1CCN(C(=O)Cn2nc(C)c3sc(-c4ccccc4)nc3c2=O)CC1	-21

Filtered by structure: those above with a furan ring, fused or not
SMILES	Tgondii IFNg
c1cncc(OCC2CN(Cc3ccco3)Cc3nccn3C2)c1 (stereo not given)	-5
Cc1cc(C(=O)N2CCC(N3CCCC3)CC2(C)C(=O)O)c(C)o1 (stereo not given)	-30

(listing goes on)
SMILES	Tgondii IFNg
CNc1cc(C(=O)N(C)C(C)c2cc3ccccc3[nH]2)ccn1 (stereo not given)	19
COc1ccc(-c2nc(C)c(CCNC(=O)c3cc(OC)c(OC)c(OC)c3)s2)cc1OC	200
COCCc1nc(Cn2cnnc2)no1	-22
O=C(NCC1CCNCC1)Nc1nncs1	-1
C[C@@H]1CN([C@H](C)CO)C(=O)c2c(c3ccccc3n2C)-c2ccccc2CO[C@H]1CN(C)C	-47
O=C(Cc1ccc(F)cc1)NCCc1csc(-c2ccc(F)cc2)n1	30
CCC(C)NC(=O)Cn1ncc2c(N3CCCCC3)ncnc21 (stereo not given)	208
Cn1cc(CN2CC[C@H]3[C@@H]2CCN3C(=O)c2cccs2)cn1	4
CN(CCc1ccccc1)Cc1c([C@H]2CCCO2)[nH]c2ncccc12	-46
Cc1nc(-c2nc(C(=O)NCC3CCCO3)c3ccccn23)cn1C(C)C (stereo not given)	16

Exported bar-delimited: five of the compounds above.
Molecule | Tgondii IFNg
COc1ccc(-c2nc(C)c(CCNC(=O)c3cc(OC)c(OC)c(OC)c3)s2)cc1OC | 200
COCCc1nc(Cn2cnnc2)no1 | -22
O=C(NCC1CCNCC1)Nc1nncs1 | -1
C[C@@H]1CN([C@H](C)CO)C(=O)c2c(c3ccccc3n2C)-c2ccccc2CO[C@H]1CN(C)C | -47
O=C(Cc1ccc(F)cc1)NCCc1csc(-c2ccc(F)cc2)n1 | 30

Other records
SMILES	Tgondii IFNg
CC1=C(C(=O)NCCc2ccc(Cl)cc2)C2(CCN(S(=O)(=O)c3cccs3)CC2)OC1=O	22
Cc1ccc2oc(C(=O)N3CCC4(CC3)NC(=O)c3cc(Cl)ccc3N4)cc(=O)c2c1	-27
Cc1noc(C)c1S(=O)(=O)Nc1ccc2c(c1)C(=O)N([C@H](C)CO)C[C@H](C)[C@@H](CN(C)Cc1ccc(C(=O)O)cc1)OCCCC[C@@H](C)O2	122
CC(C)(C)c1cc(C(C)(C)C)c(NC(=O)c2c[nH]c3ccccc3c2=O)cc1O	-67
O=C(O)c1cc(O)cc(-c2ccccc2CN2CCOCC2)c1	-1
Cc1ccccc1-c1nc(Cn2nnc(C(=O)Nc3ccc(Br)cc3F)c2C)c(C)o1	24
Cc1cc(C)c2c(=O)n(C(=O)c3cccs3)sc2n1	-39
Cc1cc(C)nc(SCC(=O)N2CCC(c3noc(-c4ccccn4)n3)CC2)n1	-9
COc1ccc(-n2nc3cc(C)c(NC(=O)c4ccccc4)cc3n2)cc1	-12
Cc1cc(C)n2ncc(CN3CCC(c4[nH]ncc4-c4ccccc4)CC3)c2n1	-5

Fetched by structure from above, 7 records:
SMILES	Tgondii IFNg
O=C(Nc1cccc(Cl)c1)c1c(O)c2ccccc2n(-c2ccccc2)c1=O	93
Cc1cc(C(=O)N2CCC(N3CCCC3)CC2(C)C(=O)O)c(C)o1 (stereo not given)	-30
CSCc1noc(CNc2nc(C(C)(C)C)nc3c2cnn3C)n1	-1
Cc1noc(C)c1NC(=O)N(C)C[C@@H]1OCc2cnnn2CCCC(=O)N([C@@H](C)CO)C[C@@H]1C	58
CC(C)NC(=O)N1CC(=O)N2[C@H](CO)[C@@H](c3ccc(/C=C/c4ccccc4)cc3)[C@H]2C1	-34
CC=Cc1ccc2n(c1=O)C[C@@H]1[C@@H](CO)[C@H](C(=O)NCCCN(C)C)N(Cc3cocn3)[C@H]21 (mixture of isomers)	4
FC1(F)CCN(CC2CC2)CC12CCN(c1cnccn1)C2 (stereo not given)	-10

The list continues.
SMILES	Tgondii IFNg
Cc1nc(C)c(C(=O)N2C[C@@H](c3ccccc3)[C@H](c3cc(C(F)F)n[nH]3)C2)o1	-80*
CC1(C)CC(NC(=O)CC2C(=O)NCCN2Cc2cccnc2)CC(C)(C)N1 (stereo not given)	-2
COC(=O)c1ccccc1NC(=O)C1CCN(S(C)(=O)=O)CC1	2
Cc1nc(CN(C)C(=O)c2sc(C(C)C)nc2C)cs1	-2
Cc1cc(C)n(-c2ccc(NCc3cc4c(cc3C)n(C)c(=O)n4C)cc2)n1	4
CCCc1cc(=O)oc2cc(OS(=O)(=O)c3ccc(Cl)cc3)ccc12	-55
Cc1ccc(Nc2ncnc3c2CCN(C(=O)C(C)C)CC3)cc1	10
CCCCNC(=O)CCC1N=C2c3ccccc3N=C(SCc3cccc(Cl)c3)N2C1=O (stereo not given)	-1
CC(C)CN1CC[C@H]2[C@@H]1CCN2S(=O)(=O)c1cccs1	-4
Cc1cccc(CO[C@@H]2CO[C@]3(CCN(S(=O)(=O)N(C)C)C3)C2)n1	0
CC(C)NC(=O)[C@@H]1C[C@@H](N)CN1C(=O)CCCc1c[nH]c2ccccc12	23
CCn1cc(S(=O)(=O)NCC2(c3ccccc3)CCOCC2)c(C)n1	37
NC(=O)N1CCc2[nH]nc(-c3ccc(F)cc3)c2CC1	8
NCC[C@H]1CC[C@H](NS(=O)(=O)c2ccc(Cl)cc2)[C@@H](CO)O1	-28
CCCn1c(=O)c(-c2nc(-c3cccc(OC)c3)no2)c(O)c2ccccc21	-3
CC(C)CN1C(=O)C2(NCCc3c2[nH]c2ccccc32)c2ccccc21 (stereo not given)	194
CC(C)NC(=O)N1CCC2(C1)CN(c1cnn(C)c1)C(=O)CN2C (stereo not given)	-42
CC(C)c1noc(-c2cc(=O)n(CC(=O)Nc3ccc4c(c3)OCO4)c3ccccc23)n1	7
COc1cc2c(=O)n(CCSC(C)(C)C)c(=S)[nH]c2c(OC)c1OC	-61
Fc1ccc(CN(Cc2ccncc2)Cc2cccc3c2OCO3)cc1	-82*
Fc1cnc(N2CCCC3(CC(n4cnnc4)CO3)C2)nc1 (stereo not given)	-4
CC(C)c1ccc(NC(=O)Cn2c(=O)cc(C(=O)N3CCc4ccccc4C3)c3ccccc32)cc1	-27
CCC(c1ccc(F)cc1)n1cc(C(=O)Nc2nc(-c3ccccn3)cs2)nn1 (stereo not given)	-97*
Fc1cccc(-c2ncnc3c2CCN(CC2CCOC2)CC3)c1 (stereo not given)	-42
O=C(On1c(-c2ccccc2)nc2ccccc2c1=O)c1cccc(C(F)(F)F)c1	-17
Cc1ccc(NC(=O)Cn2c(=O)cc(C(=O)N3CCCC3)c3ccccc32)c(Cl)c1	1
COc1ccc2c3c([nH]c2c1)[C@@H](CO)N(C(=O)C1CCOCC1)CC31CCN(Cc2cccc(F)c2)CC1	-28
CN(C)C(=O)c1ccc(-c2ccccc2[C@H]2[C@@H](C#N)N(C(=O)C3CC3)[C@H]2CO)cc1	-2
COc1cccc(COC2CN(CC(C)C)C(=O)CN(C(=O)C3CC=CCC3)C2)c1 (stereo not given)	8
COc1cccc(-n2c(=O)c(C(=O)Nc3cc(C)ccc3F)c(O)c3cccnc32)c1	29
COc1ccccc1-c1ccc(NC(=O)CC2(C)C(=O)N=C3C=CC=CN32)cc1 (stereo not given)	13
CCn1ncnc1CN1CCC(O)(c2ccc3nc(C)ccc3c2)CC1	5
Cc1c(C(=O)N2CCC(O)(Cn3ccnc3C)CC2)oc2c1C(=O)CC(C)(C)C2	127
CCc1nnsc1C(=O)N1C[C@@H]2[C@@H]3CC[C@@H](C3)[C@@H]2C1	7
CCCc1nc(C)cc(N2CCC3(CCCN(C)C3=O)C2)n1 (stereo not given)	-25
COc1ccc(S(=O)(=O)Nc2ccc3c(c2)C(=O)N([C@H](C)CO)C[C@H](C)[C@@H](CN(C)Cc2ccc(C(F)(F)F)cc2)OCCCC[C@H](C)O3)cc1	6
Cn1nc(-c2ccccc2)cc1NC(=O)C1COc2ccccc2O1 (stereo not given)	45
CN(C)C(=O)N1CCC2(CC1)CC(CC(=O)Nc1cccnc1)c1ccccc1O2 (stereo not given)	-113*
O=C(Cn1ncc2c(N3CCCCC3)ncnc21)NC1CCN(Cc2ccccc2)CC1	-7
CSc1nc(C(=O)N2CCc3c(cc(-c4cccc(Cl)c4)c(=O)n3CC3CC3)C2)cs1	-16
Cc1[nH]c(C(=O)N2CCC(CC(=O)NCCc3c[nH]c4ccccc34)CC2)c(C)c1C	74
COc1ccc(CNc2nc(SCc3ccccc3Cl)nc3ccccc23)cc1	18
CCN(CCn1cccn1)C(=O)c1[nH]c2ccc(C)cc2c1C	-4
Cn1c(CN2CCCC(OCc3ccccn3)C2)cc2cc(F)ccc21 (stereo not given)	15
C[C@@H]1CN([C@@H](C)CO)C(=O)c2cc(NS(=O)(=O)c3ccccc3)ccc2O[C@@H](C)CCCCO[C@@H]1CN(C)C(=O)C1CCCCC1	4
CC(C)c1nc(CN2CCC(CNC(=O)C(C)(C)C)CC2)co1	1
COC(=O)Nc1nc2ccc(-c3n[nH]c(=O)c4ccccc34)cc2[nH]1	-102*
COc1cccc(O)c1CN(Cc1ccncc1)Cc1ccc(F)cc1	-60
COc1ccccc1-c1ccc2c(c1)[C@H]1[C@H](CCN1C(=O)C1CCC1)[C@H](CO)N2	-71*
O=C(Nc1cncc(-c2nc3ccccc3o2)c1)c1cccc(Cl)c1	-1

Later entries
SMILES	Tgondii IFNg
CCCC(C)c1nnc(NC(=O)c2noc(C)c2COC)s1 (stereo not given)	-4
O=C(CCC(F)(F)F)N1CCCC(CCc2ccc(F)cc2F)C1 (stereo not given)	-6
CS(=O)(=O)c1ccc(-c2cc(N)nc3[nH]ccc23)cc1	4
CC(C)n1cnnc1CN(C)c1nc(-c2cccnc2)nc2c1CNC2	3
